Source: PubChem BioAssay (ICCB-Longwood Screening Facility, Harvard Medical School)
AID504770: growth inhibition of E. coli YBA685, primary screen, V. cholerae RctB inhibitors; E. coli YBA685 rctB-dependent plasmid, OD600 growth, 3 h; active compounds read low; z-score (test concentration not listed); 0.27% of 130,000 active; AID 504770, 2011;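 active = z-score under -2 on both plates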;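 also: wells of about 30 µL received 100 nL stock; score is relative to mean and SD of the test wells; the first replicate is given; strong numbers were not always called active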
Ba CapD inh: Bacillus anthracis CapD inhibitors, primary screen, biochemical, fluorescence intensity; CapD gamma-glutamyltranspeptidase (Bacillus anthracis Ames Ancestor); purified CapD enzyme, fluorescence intensity read-out; active compounds read low; some hits fall short of the stated cut; z-score (concentration not given with the values); 0.23% of 140,000 active; AID 492967, 2010;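 active = z-score under -4 in either of two replicates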;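 also: stock transfer was 100 nL into about 40 µL; score is relative to mean and spread of the plate; one replicate is shown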
Numbers without * were called inactive; / = not tested or not shown. Not all compounds are listed; count on the stated rates, not on these rows.

Every second line gives: AID504770 | Ba CapD inh
> O=C(C1CCCN(S(=O)(=O)c2ccc(Cl)cc2)C1)N1CCCC1 (centres undefined)
 : -0.15 | /
> Cc1ccc(N2CCN(C(=O)c3sc4nc(C)nc(N5CCOCC5)c4c3C)CC2C)cc1 (centres undefined)
 : / | 0.2
> COc1ccc(C2/C(=C(\O)c3ccccc3)C(=O)C(=O)N2CCCN2CCOCC2)cc1OC (centres undefined)
 : / | -0.28
> O=C(CSc1ccc(-c2ccco2)nn1)N1CCCC1
 : 0 | 0.45
> Cc1[nH]c2ccccc2c1/C=N/NC(=O)Cc1nc2sc(C)c(C)c2c(=O)[nH]1
 : 0.95 | /
> CN(C(=O)c1ccc(N=Cc2nc(-c3cccc4ccccc34)oc2O)cc1)c1ccccc1
 : / | -3.4
> Cc1ccc(C(=O)NCc2ccco2)o1
 : 0.55 | /
> CC[n+]1c(/C=C/C=C2\N(C)c3ccccc3C2(C)C)n(-c2ccccc2)c2cc(Cl)ccc21
 : / | -0.88
> COc1ccc2nc(C)cc(NCCN3CCOCC3)c2c1
 : 0.1 | /
> O=C(O)CCC(=O)N1CCN(c2cccc(C(F)(F)F)c2)CC1
 : / | 0.3
> O=C1NC2CCCCC2NC1CC(=O)N1CCN(Cc2ccccc2)CC1 (centres undefined)
 : -0.8 | /
> O=C(NCCCN1CCCC1=O)Nc1cnc2ccccn2c1=O
 : 0 | 14
> Cc1ccn(CN2CCN(Cn3ccc(C)n3)C2=S)n1
 : 0.8 | 55
> COc1ccc(OC)c(-n2c(=S)[nH]c3cc(C(=O)Nc4cc(OC)c(OC)c(OC)c4)ccc3c2=O)c1
 : / | -0.29
> Brc1cc2c(cc1CSc1nnc(C3CC3)n1C1CC1)OCCO2
 : -0.1 | /
> O=C(O)c1ccccc1Cn1ccnc1
 : 0.7 | /
> CCCSc1ncccc1C(=O)Nc1c(C)noc1C
 : 1.1 | 0.38
> N#Cc1c(Cl)cccc1NCc1ccc(Cl)cc1
 : 0.05 | 6.9
> Nc1nnc(CC(=O)c2ccccc2)c(=O)[nH]1
 : -0.6 | /
> CN1C(=O)/C(=c2\sc3nc(-c4ccccc4)nn3c2=O)c2ccccc21
 : -1 | -0.36
> COc1ccc(OCCn2cc(C=C3C(=O)N(C)C(=O)N(C)C3=O)c3ccccc32)cc1
 : 0.05 | -0.85
> Cn1cccc1C(=O)OCC(=O)Nc1cc(C(C)(C)C)nn1-c1ccccc1
 : 0.8 | /
> CC(SC1=N/C(=C\c2ccco2)C(=O)N1c1ccc(OC(F)F)cc1)C(=O)N1CCc2ccccc21 (centres undefined)
 : -0.2 | /
> Cc1oc(-c2ccc(Cl)cc2)cc1CO
 : 0.1 | /
> CN(C)C=Nc1ccc2nnc(-c3ccccc3)n2n1
 : / | 19
> Nc1nc(Cn2nnc(-c3ccc4c(c3)OCO4)n2)nc(N2CCOCC2)n1
 : / | -0.19
> C/C(=N\NC(=O)C1CCN(S(=O)(=O)c2ccccc2)CC1)c1ccccc1
 : -1 | 0.28
> CCOC(=O)c1c(C)n(-c2ccc(N(C)C)cc2)c2ccc(OC)cc12
 : -0.25 | 3.5
> O=C1CC(c2ccccc2)CC(O)=C1C=NCCN1CCN(C2OC(=O)c3ccccc32)CC1 (centres undefined)
 : -0.3 | -0.35
> CN1CCN(c2nc(-c3ccc[nH]3)cs2)CC1
 : -0.7 | /
> CCS(=O)(=O)N1CCN(c2cc(C(F)(F)F)ccn2)CC1
 : -1.1 | 38
> CN1CC(c2ccccc2)OC1=O (centres undefined)
 : 1.9 | -0.05
> CCN1CCN(C2=NC(=O)/C(=C/c3ccc(OCc4ccccc4)cc3)S2)CC1
 : / | 0.49
> O=C(O)c1ccc(-c2ccccc2F)cc1
 : -0.85 | 0.3
> Cc1ccc(C)c(-c2nnc(NC(=O)/C=C/c3cccs3)o2)c1
 : 0.15 | /
> CCN(CC)C(=O)c1sc(NC(=S)N(C)Cc2cn(CC)nc2C)c(C(=O)OC)c1C
 : 2.1 | -0.51
> COc1ccc(NC(=O)CSc2nnc(CNC(=O)c3cc(OC)c(OC)c(OC)c3)n2-c2ccccc2OC)cc1
 : / | -0.6
> CCOc1ccc(/C=C2\CCc3ccccc3C2=O)cc1
 : / | 0.41
> Cc1cccc(Oc2c([N+](=O)[O-])c(=O)n(C)c3ccccc23)c1
 : / | -0.24
> CN(C)c1ccc(C(=O)c2ccccc2)cc1
 : -0.8 | -1.4
> CCOC(=O)C(Cc1ccc(O)cc1)NC(C)=O (centres undefined)
 : 0 | 0.73
> C/C(CCc1ccc2c(c1)OCO2)=N\NC=O
 : -0.8 | /
> O=C(Nc1ccc(OC(F)(F)F)cc1)Nc1cc(-c2ccco2)[nH]n1
 : / | -0.01
> CCCCn1c(SCC(=O)c2ccc3c(c2)NC(=O)CO3)nc2cc(S(N)(=O)=O)ccc21
 : -1.2 | /
> Cc1sc(N)c(C#N)c1-c1ccc(Cl)cc1Cl
 : -0.65 | 0.14
> CC(C)c1ccc(NC(=O)CSc2cccs2)cc1
 : -0.5 | -0.055
> COc1ccc(CN(C)C(=O)c2cccc(N(C)C)c2)cc1
 : 1.4 | /
> COC(=O)c1c(NC(=O)c2cccs2)sc2c1C(C(=O)OC)CC2 (centres undefined)
 : 1.8 | /
> CN1C(=O)CC(C(=O)Nc2ccccc2F)SC1=Nc1ccc(Br)cc1 (centres undefined)
 : / | 0.75
> CCOC(=O)c1sc2nc(SCC(=O)NCc3ccco3)n(Cc3ccc(Cl)cc3)c(=O)c2c1C
 : / | 1.3
> CN(C)CCN1C(=O)C(=O)/C(=C(/O)c2ccccc2)C1c1ccc(N(C)C)cc1 (centres undefined)
 : / | -0.44
> CCOc1ccc(Br)cc1S(=O)(=O)n1cccc1
 : -0.45 | -0.065
> c1ccc(CNCc2cccn2-c2nnc(N3CCCCC3)s2)cc1
 : -0.1 | 0.27
> COC(=O)c1ccc(N2C(=O)CSC23C(=O)Nc2ccccc23)cc1 (centres undefined)
 : / | 0.42
> COc1ccc(NC(=O)c2ccc(COc3cccc(C)c3)o2)cc1
 : 1.8 | /
> CCOc1ccc(NC(=O)CSc2nc(NCCOC)c3ccccc3n2)cc1
 : / | 0.16
> COc1ccccc1NS(=O)(=O)c1cccc(Cl)c1
 : -0.3 | /
> CC(C)(C)c1ccc(Oc2ncccc2NC(=O)c2ccco2)cc1
 : / | 0.78
> O=C(COc1ccc2c3c(c(=O)oc2c1)CCC3)c1ccc(N2CCCC2)cc1
 : -0.45 | 3.7
> CN(C(=O)c1noc2c1CCCC2)c1ccccc1
 : -0.55 | -0.58

4 of the compounds above, field by field.
> CN(C(=O)c1noc2c1CCCC2)c1ccccc1
  AID504770: -0.55 | Ba CapD inh: -0.58

> CCOc1ccc(Br)cc1S(=O)(=O)n1cccc1
  AID504770: -0.45 | Ba CapD inh: -0.065

> O=C(Nc1ccc(OC(F)(F)F)cc1)Nc1cc(-c2ccco2)[nH]n1
  AID504770: / | Ba CapD inh: -0.01

> c1ccc(CNCc2cccn2-c2nnc(N3CCCCC3)s2)cc1
  AID504770: -0.1 | Ba CapD inh: 0.27

Later entries.
Every second line gives: AID504770 | Ba CapD inh
> O=C(c1cc2c(=O)oc3ccccc3c2s1)N1CCN(c2cccc(C(F)(F)F)c2)CC1
 : / | 0.04
> COc1ccccc1OCC(O)CN1CCOCC1 (centres undefined)
 : 1.2 | /
> COc1ccc(N2C(C(C)=O)=NN(c3ccccc3)C2c2ccccc2OCc2c(Cl)cccc2Cl)cc1 (centres undefined)
 : / | -0.32
> COc1ccccc1C(=O)OCC(=O)N1CCCCCC1
 : -0.65 | -0.36
> O=C(c1ccccc1)N(c1ccc2oc(=O)sc2c1)S(=O)(=O)c1ccccc1
 : 0.3 | -0.52
> Cc1nc2sccn2c1C(=O)N/N=C\c1ccc(CNS(=O)(=O)c2ccc(Cl)cc2)o1
 : 0.05 | -0.6
> CCC(=O)Nc1cc(-c2nn(C)c(=O)c3ccccc23)ccc1N1CCCCC1
 : 1.8 | /
> CCc1nc2ccc(C(=O)NC3CCCCC3)cc2nc1CC
 : -0.3 | -0.2
> CC(=O)N1CCN(CC(=O)NCCc2ccc(Cl)cc2)CC1
 : -0.65 | /
> Cc1ccn2cc(-c3ccc(S(=O)(=O)N4CCOCC4)cc3)nc2c1
 : / | 2
> CC1C(c2ccccc2)NC(c2ccccc2)C(C)C1O (centres undefined)
 : / | -0.065
> O=C(O)Cc1ccc(NC(=S)Nc2ccc3c(c2)OCO3)cc1
 : 0.85 | -0.83
> O=C(/C=C/c1ccccc1)C1(O)CCCCC1
 : / | -0.89
> Clc1ccc(-c2nn3c(-c4ccc(Cl)cc4)nnc3s2)cc1
 : -0.25 | 0.095
> Cn1c(C(C#N)/C(=N\S(=O)(=O)c2ccccc2)c2ccccc2)nc2ccccc21 (centres undefined)
 : -0.15 | /
> O=C1c2ccccc2NC(c2ccc(Cl)cc2Cl)N1c1ccc(F)c(Cl)c1 (centres undefined)
 : / | 13
> COc1ccc(-c2cc(C(=O)N(C)c3ccccc3)no2)cc1
 : -0.2 | -0.41
> Cc1nnsc1C(=O)NC1CCCCNC1=O (centres undefined)
 : 0.25 | 0.28
> Cc1cc(C)nc(N(C(=O)C2CC2)c2cc(C(F)(F)F)ccc2Cl)n1
 : / | -0.24
> CSc1nc2nc3c(cc2c(=O)n1-c1ccccc1C)COC(C)(C)C3
 : 0.05 | 2.4
> COc1nccnc1NS(=O)(=O)c1ccc(NC(=O)c2sc3ccccc3c2Cl)cc1
 : / | -0.12
> CCOc1ccc(C(NC(=O)c2ccco2)NC(=O)c2ccco2)cc1OC
 : 0.9 | -0.69
> COc1ccsc1C(=O)O
 : -0.05 | -0.33
> CN(C(=O)c1ccc2c(Cl)c3c(nc2c1)CCC3)c1ccccc1Cl
 : -0.2 | -0.56
> Cc1nc2ccccc2c(C)c1CC(=O)N1CCN(c2ccc(O)cc2)CC1
 : 0 | /
> Cc1ccccc1C(=O)NN1C(=O)/C(=C2/C(=O)N(C)c3ccc(Br)cc32)SC1=S
 : / | -0.33
> CCn1c(CSc2ncccn2)nc2cc(C(=O)O)ccc21
 : -0.2 | /
> Cc1sc2ncnc(N(C)C3CCCCC3)c2c1C
 : -0.5 | /
> Cc1nn(C(=O)CCC(=O)N2CCc3ccccc32)c2ccccc12
 : 0.9 | 0.29
> CCCn1c(C(C)NC(C)=O)nc2ccccc21 (centres undefined)
 : -0.65 | -0.025
> Cc1ccc2ncc(C(=O)N3c4ccccc4CC3C)c(=O)n2c1 (centres undefined)
 : -0.1 | /
> COc1ccc(-c2nn(CCC#N)cc2C#N)cc1
 : 2.2 | -0.45
> Cc1[nH]c2ccc(C(=O)OCC(=O)c3cc4ccccc4o3)cc2c1C
 : 0 | /
> CCSc1nnc(-c2cc(Br)ccc2N)c(=O)[nH]1
 : -0.3 | -0.59
> COC(=O)C1=C(C)NC(=O)C1(Nc1nc2ccccc2s1)C(F)(F)F (centres undefined)
 : 1.3 | -1.1
> CCOC(=O)CSc1nnc(-c2ccncc2)n1-c1ccccc1
 : / | -0.29
> Cc1ccc(C)c(NC(=O)CC(NC2CCCCC2)C(=O)O)c1 (centres undefined)
 : 0.7 | -0.43
> COc1ccc(C2c3cccn3CCN2C(=O)Nc2cccs2)cc1OC (centres undefined)
 : -1.2 | /
> NS(=O)(=O)c1ccc(CCNC(=O)c2cccc(-n3c(=S)[nH]c4cc(Cl)ccc4c3=O)c2)cc1
 : / | -0.29
> COC(=O)c1cc(OC)c(OC)cc1NC(=O)CSc1ccc(C)cc1
 : / | 2
> CCCNC(=O)N1CC(O)CC1C(N)=O (centres undefined)
 : -0.55 | /
> CN(C(=O)COc1ncnc2ccccc12)c1ccccc1
 : -0.05 | -0.3
> CC(=C1C(=O)c2ccccc2C1=O)N1CCc2ccccc2C1
 : -1.1 | -1
> CCCCCCCc1ccc(CNc2ccc(C(=O)OCC)cc2)cc1
 : / | 0.73
> CN1CCC(=NNC(=O)c2ccc3c(c2)NC(=O)C(C)(C)O3)CC1
 : -0.55 | /
> Cc1cccc(NC(=O)CCCN2C(=O)CCC2=O)c1C
 : -0.45 | -0.48
> COc1ccc(OC)c(N/C=C(\C#N)c2nc(-c3cc4cc(Br)ccc4oc3=O)cs2)c1
 : / | 0
> CN(Cc1ccccc1)S(=O)(=O)c1ccc2[nH]c(=O)oc2c1
 : -1 | -0.69
> C/C=C(\C)c1nnc(NCC(C)(C)C)s1
 : 0.75 | -0.14
> O=C1CN(C(=O)COC(=O)Cc2ccccc2)c2ccccc2N1
 : -0.45 | 0.26
> O=C(c1cccs1)c1coc2ccc(O)c(CN3CCOCC3)c12
 : -0.55 | -0.35
> COC(=O)C1=C(C)NC(SCC(=O)Nc2ccc(C(C)=O)cc2)=C(C#N)C1c1ccccc1Cl (centres undefined)
 : / | 1.7
> COc1cc(NC(=O)c2cc(N(C)C)nc(N(C)C)n2)cc(OC)c1
 : / | 4.6
> Cc1nc2ccccc2c2oc(C(=O)NCCCN3CCCC3)cc12
 : 1.6 | 4.9
> O=C(NCc1ccc(-c2csnn2)cc1)N1CCN(C(=O)OCc2ccccc2)CC1
 : / | -0.94
> CC1CCN(CC(=O)N2CCN(c3ccccc3)CC2)CC1
 : -0.15 | /
> O=C(O)C(Cc1ccccc1)NS(=O)(=O)c1cccc2cccnc12 (centres undefined)
 : 0.6 | 0.49
> CCCC(C(=O)O)N1Cc2ccccc2C1=O (centres undefined)
 : 0.1 | -0.82
> COc1ccc(O)c(/C=N/c2nc3ccccc3s2)c1
 : -0.4 | -0.59
> COCC(=O)N1N=C(c2cccc(NS(C)(=O)=O)c2)CC1c1ccccc1C (centres undefined)
 : -0.25 | 0.6
> CCOC(=O)CCC(NS(=O)(=O)c1ccc(Oc2cccc(Cl)c2C#N)cc1)C(=O)OCC (centres undefined)
 : / | -0.74
> C=CCC1(NCCO)CCCCC1
 : 0 | 1.6

Single entries from above.
O=C(CSc1ccc(-c2ccco2)nn1)N1CCCC1 | AID504770: 0
COc1ccc(OC)c(N/C=C(\C#N)c2nc(-c3cc4cc(Br)ccc4oc3=O)cs2)c1 | Ba CapD inh: 0
